# NPYLR7 agonist: activates Aedes aegypti NPYLR7 receptor | HEK293T NPYLR7/Galpha15, GCaMP6s calcium fluorescence | activation, % at 10 µM | 270,000 tested, 0.15% active; in the data active = activation above about 40%;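 note: 0% = vehicle and 100% = reference agonist at the receptor; some compounds past the cut are filed as inactive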
# NPYLR7 agonist max-min: also measured in NPYLR7 agonist; calls as there; activation, %; measured here: Max-Min RFU normalised activation; some inactives read as strong as hits;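 span of the calcium signal over five minutes; 0% = vehicle and 100% = native peptide agonist; compound fluorescence can raise it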
# An asterisk follows results filed as active; & = joins results of further samples. This is a subset; the hit share may differ from the screen's.
SMILES,NPYLR7 agonist,NPYLR7 agonist max-min
CC1CN(C)CCN1Cc1csc(-c2ccc(C(N)=O)cc2)n1 (stereo not drawn),8,2
CCc1ccc(CCC(=O)NCCOC)cc1,10,6
CC1CCN(C(=O)c2csc(Nc3ccc(OC(F)F)cc3)n2)CC1,13,2
Cc1ccc(CN(CCc2c[nH]c3ccccc23)C(=O)CN(C(=O)Nc2ccccc2Br)C(C)C)cc1,16,26
Cc1ccc(-n2ncc3c(-n4nc(C)cc4NC(=O)c4cccs4)ncnc32)c(C)c1,3,2
Cc1ccccc1-n1c(SCc2nc(C(=O)N3CCN(c4cccc(Cl)c4)CC3)cs2)nnc1-c1cccnc1,15,10
O=C(CSC1=NS(=O)(=O)c2cc(Cl)ccc2N1)OCc1ccccc1,12,7
Cc1ccc(Cn2c(=O)c3ccc(C(=O)NCC(C)C)cc3n3c(=O)n(C)nc23)cc1,0,-2
CSCCNC(=O)C1(C)CCN1C(=O)Cc1ccc(-c2ccccc2)cc1 (stereo not drawn),3,2
O=C(Nc1cc(Cl)ccc1Cl)N(CC(O)c1ccccc1)C1CC1 (stereo not drawn),-4,-6
S=c1[nH]nc(-c2cccnc2)n1Cc1ccco1,-1,0
Cc1cc(C)cc(OS(=O)(=O)c2cn(C)c(=O)n(C)c2=O)c1,0,-2
CC(C)CN(Cn1[nH]c(-c2ccccc2)nc1=S)C1CCS(=O)(=O)C1 (stereo not drawn),9,3
O=C(c1cccnc1)C1CCCN(C(=O)c2cc(COc3ccc(F)c(F)c3)on2)C1 (stereo not drawn),13&-5,0&-8
CSC(CO)C(C)NCc1ccccc1N1CC(C)OC(C)C1 (stereo not drawn),1,1
CCCNC(=O)COC(=O)c1c(-c2cccs2)csc1NC(C)=O,-2,3
CCCN(C)c1ccc(C(=O)NC2CCN(C(=O)C3CC3)CC2)cc1,-1,-2
COc1ccc(S(=O)(=O)NCC(c2ccc3c(c2)CCCN3C)N(C)C)cc1C (stereo not drawn),4,2
O=C(c1ccccc1OC1CCN(Cc2cccc3c2OCO3)CC1)N1CCCCC1,13,5
COC(=O)c1cnc(Nc2nc(CN)cs2)nc1C(F)(F)F,-1,-7

# Four structures from above, ordered by heavy-atom count, lowest first:
SMILES,NPYLR7 agonist,NPYLR7 agonist max-min
Cc1cc(C)cc(OS(=O)(=O)c2cn(C)c(=O)n(C)c2=O)c1,0,-2
CSC(CO)C(C)NCc1ccccc1N1CC(C)OC(C)C1 (stereo not drawn),1,1
COc1ccc(S(=O)(=O)NCC(c2ccc3c(c2)CCCN3C)N(C)C)cc1C (stereo not drawn),4,2
O=C(c1ccccc1OC1CCN(Cc2cccc3c2OCO3)CC1)N1CCCCC1,13,5

# Single records, from the list above. Order of screens: NPYLR7 agonist, NPYLR7 agonist max-min
# O=C(c1ccccc1OC1CCN(Cc2cccc3c2OCO3)CC1)N1CCCCC1 across the screens: 13, 5
# O=C(Nc1cc(Cl)ccc1Cl)N(CC(O)c1ccccc1)C1CC1 (stereo not drawn) across the screens: -4, -6

# Continuation.
SMILES,NPYLR7 agonist,NPYLR7 agonist max-min
Cc1[nH]n(-c2ccc(Cl)cc2)c(=O)c1N=Nc1cccnc1,-2,-3
CCOC(=O)[C@@H]1C[C@H]2CN(Cc3ccc(OC)cc3)C(=O)c3cccc(c32)N1C(=O)C(C)C,-1,4
O=C(NCCc1ccc(F)cc1)c1ccc(Nc2cccc(C(F)(F)F)c2)nc1,-10,-18
O=C(NCc1ccccn1)C1COC2(CCN(C(=O)c3ccccc3F)CC2)N1C(=O)c1cccc(F)c1 (stereo not drawn),9,11
O=C1c2cccc([N+](=O)[O-])c2C(=O)N1CNc1ccc(Br)cc1,4,3
CN1C(=O)NC(c2cccc(Oc3ccccc3)c2)C2=C1CN(C(Cc1ccccc1)C(=O)NCc1ccccc1F)C2=O (stereo not drawn),-3,3
CCSc1nnc2c(n1)OC(c1cccc(Br)c1)Nc1ccccc1-2 (stereo not drawn),-9,-14
CCCc1nc(N2CCN(S(=O)(=O)c3cccc(C(F)(F)F)c3)CC2)c2c(-c3ccccc3)noc2n1,15,2
CC1c2cccn2CCN1C(=O)c1cc(COc2ccccc2)[nH]n1 (stereo not drawn),2,1
COc1cccc(NC(=O)Cn2ccn3nc(-c4ccc(C)cc4)cc3c2=O)c1,5,2
CC1=NN(Cc2ccccc2)c2nc3c(c(=O)n(Cc4ccc(F)cc4)c(=O)n3C)n2C1,7,6
Cc1ccc(OCc2ccc(C(F)(F)F)cc2)c(CO)n1,-5,-5
Cn1nc(-c2ccccc2)cc1-c1nc2c([nH]1)CC(C)(C)CNC2=O,8,8
Cn1c(=O)c2cc(NC(=O)OCCF)ccc2n1Cc1cccc(C(F)(F)F)c1,1,-1
O=c1onc(-c2cccs2)n1CCN1CCOCC1,0,-2
O=C1CCCN1c1ccc(CNCc2ccccc2Cl)cc1,3,1
Brc1cnc2n[nH]nc2c1,-8,-13
O=C(c1ccccc1OC(F)(F)F)N1CCN(c2nccc(-c3ccc(N4CCOCC4)cc3)n2)CC1,8,4
O=C(CCl)Nc1ccccc1N1CCOCC1,-10,-14
O=C(Nc1ccc(N2CCCC2)c(C(=O)NCc2ccccc2)c1)Nc1cccc2ccccc12,-5,5
COCCn1c(=O)c2c(nc3n(-c4cc(Cl)ccc4OC)c(C)cn23)n(C)c1=O,-3,18
COc1ccc(C2CC(=O)C3C(=Nc4ccccc4NC3c3cccc(O)c3)C2)cc1OC (stereo not drawn),-2,-1
O=C1OCCc2cnc3nc(C(F)(F)F)nn3c21,-5,-6
O=C(Cn1ncc2ccsc2c1=O)NC1CC1,9,7
O=S(=O)(c1ccc(Sc2nnnn2C2CC2)nc1)N1CCCCC1,8,13
CCc1cc(N2CCNC(C(=O)O)C2)nc(N2CCCCC2)n1 (stereo not drawn),-1,-2
CC(NC(=O)C1=NN(C)C(=O)CC1)c1ccc(NC(=O)Nc2ccccc2)cc1 (stereo not drawn),4,1
CN(C)CC(C)(C)CNC(=O)CN1C(=O)C(Oc2ccccc2)C1c1ccco1 (stereo not drawn),9,9
CCOC(=O)CNC(=O)CSc1nc2c(c(=O)n1-c1ccc(OC(F)(F)F)cc1)SCC2,-8,-14
CCCn1ncc(CN2CCC(C(=O)Nc3ccc(Oc4ccccc4F)cc3)CC2)c1C,1,-3
COC(=O)c1ccc(N=C2SC(C(=O)Nc3cccc(Cl)c3)CC(=O)N2C)cc1 (stereo not drawn),-1,-3
C#CCN(Cc1ccco1)C(=O)c1cc(Cn2c(C)nc3ccccc32)[nH]n1,1,-2
Cc1cc(N2CCC(Cc3ccccc3)CC2)nc(-n2cc([N+](=O)[O-])cn2)n1,5,4
COc1ccccc1C(C)N(C)C(=O)Nc1nc(-c2ccccc2)ns1 (stereo not drawn),-7,-10
CCNc1nc(NC(C)C)nc(OCC(=O)O)n1,1,-1
CNc1cncc(-c2ccc(C(N)=O)cc2)n1,1,-3
CN1CCc2c(sc(NC(=O)Cc3ccccc3)c2-c2nc3ccccc3s2)C1,45*,43*
COc1ccc(Oc2cc(N3CCN(C(=O)/C=C/c4ccccc4)C(C)C3)ncn2)cc1 (stereo not drawn),7,4
O=S(=O)(Oc1ccc(OCC2CC2)cc1)c1ccc2c(c1)CCO2,16,15
CC(C)c1nccc(CN2CCN(Cc3ccc(Cl)cc3)CC2)n1,3,3
CCC(C(=O)N(CCOC)Cc1nc2cc(Cl)ccc2o1)c1ccccc1 (stereo not drawn),6,8
O=C(NCc1ccccc1)C1CCCN(c2cnc3ccccc3n2)C1 (stereo not drawn),22,16
O=C(O)C1Cc2ccccc2N1C(=O)OCc1ccccc1 (stereo not drawn),-4,-5
CN(CC1CCOCC1)C(=O)CC1C(=O)NCCN1C/C=C/c1ccccc1 (stereo not drawn),-2,-4
CC(CCN1CCCC1=O)NC(=O)Cc1cccc(O)c1 (stereo not drawn),6,3
CCOC(=O)c1cc(-c2ccc(OC)cc2)nn1CCC#N,-1,-9
O=C(Cn1c2ccc(F)cc2c2ncn(Cc3ccccc3)c(=O)c21)Nc1cccc(F)c1,-1,-3
COc1ccc(C(C)NS(=O)(=O)c2cnn(C)c2)cc1Br (stereo not drawn),-2,-4
CCOC(=O)C1(CCc2ccccc2)CCN(C(=O)Nc2ccc(SC)cc2)CC1,3,-1
COc1cccc(CNC(=O)CCC2CCCN(C(=O)c3cccc(-c4ccco4)c3)C2)c1 (stereo not drawn),-2,-5
CCOC(=O)c1c(NC(=O)C=Cc2cccs2)sc2c1CCCCC2,-2,-2
COc1ccc(N2CCC(N3CCC(CCC(=O)N4CCCC4)CC3)CC2)cc1,6,2
O=C(/C=C/c1ccsc1)c1c(O)ccc2oc(=O)ccc12,0,-5
CCc1nc2c(OCc3ccc(C(F)(F)F)cc3)cccn2c1N(C)C(=O)c1ccc(C)cc1,-16,-3
CC(N)=C(C#N)C(=O)COC(=O)C1CSC2(C)CCC(=O)N12 (stereo not drawn),3,13
COc1ccc(-c2cc3c(=O)n(CC(=O)Nc4ccc(C)cc4C)ccn3n2)cc1,8,3
CN(Cc1ccccc1Br)C(=O)c1nccnc1N,7,3
CCOC(=O)C1(O)CCN(C(=O)c2ncc(C(C)(C)C)o2)CC1,-4,-4
CC(=O)N(c1nc(C=C(CC(=O)O)c2nc3ccccc3s2)cs1)c1ccc(F)cc1F,4,4
Cc1ccc(-c2nc(CN(C)Cc3nonc3C)c(C)o2)o1,-9,-11

# A portion of the results above, for reference:
SMILES,NPYLR7 agonist,NPYLR7 agonist max-min
CCCNC(=O)COC(=O)c1c(-c2cccs2)csc1NC(C)=O,-2,3
CCCN(C)c1ccc(C(=O)NC2CCN(C(=O)C3CC3)CC2)cc1,-1,-2
COc1ccc(S(=O)(=O)NCC(c2ccc3c(c2)CCCN3C)N(C)C)cc1C (stereo not drawn),4,2

# Back to the main list, repeating the five entries before the break.
SMILES,NPYLR7 agonist,NPYLR7 agonist max-min
COc1ccc(-c2cc3c(=O)n(CC(=O)Nc4ccc(C)cc4C)ccn3n2)cc1,8,3
CN(Cc1ccccc1Br)C(=O)c1nccnc1N,7,3
CCOC(=O)C1(O)CCN(C(=O)c2ncc(C(C)(C)C)o2)CC1,-4,-4
CC(=O)N(c1nc(C=C(CC(=O)O)c2nc3ccccc3s2)cs1)c1ccc(F)cc1F,4,4
Cc1ccc(-c2nc(CN(C)Cc3nonc3C)c(C)o2)o1,-9,-11
COc1ccc(Br)cc1C=CC(=O)c1ccc(F)cc1,-1,-3
c1cnc(-n2cncn2)c(CNc2cc(N3CCOCC3)ncn2)c1,11,7
COc1ccc(Cl)cc1S(=O)(=O)Nc1ccc(Br)cc1C(=O)NCc1ccccc1,-1,-6
CCc1nc2ccc(C(=O)NCCN3CCNC3=O)cn2c1N(C=O)CC,-5,-12
CC1CCCCC1Nc1ncnc2c1nnn2C (stereo not drawn),18,10
Fc1ccc(CN2CCC(NCc3cccc4ccccc34)CC2)cc1F,3,0
CCCc1cnc(C)nc1-c1ccnc2c1ccn2C,16,5
Cc1ccc(C2(c3noc(CN4CCC(OCc5cccnc5)CC4)n3)CCCC2)cc1,6,2
O=C(CCc1ccccn1)N1CC[C@@H](N2CCN(c3ccccc3F)CC2)[C@H](O)C1,3,4
C/C(=N\NC(=O)c1ccc(C(C)(C)C)cc1)c1ccc(NC(=O)c2ccc(C)o2)cc1,5,8
Cn1c(=O)c2c(nc(CN3CCOCC3)n2CC(=O)C(C)(C)C)n(C)c1=O,12,2
C=CCOc1cccc(C(=O)N2CCCC(N3CCN(c4ccccc4OC)CC3)C2)c1 (stereo not drawn),7,0
C=CCn1c(SCC(=O)C(C#N)=C(C)N)nnc1-c1ccoc1C,-6,-11
Cc1cc(N2CCCN(Cc3cccc(C)n3)CC2)ccn1,1,2
CCOC(=O)C1CCCCN1CC(=O)N1N=C(c2ccc(C)cc2C)CC1c1ccc2c(c1)OCO2 (stereo not drawn),-3,8
O=C1CC(c2cccc3nsnc23)c2cc3cn[nH]c3cc2N1 (stereo not drawn),15,25
CCc1ccc(N2CCCn3c2nc2c3c(=O)n(CC(=O)OC)c(=O)n2C)cc1,10,5
CC(C)Cc1ncc2c(n1)CN(C(=O)c1cccc(-n3cnnc3)n1)C2,6,-2
Cc1nn(C)c(C)c1-c1ccnc(NCCN2CCN(C(C)C)CC2)n1,4,4
O=C(/C=C/c1ccsc1)NC1CCc2c(O)cccc21 (stereo not drawn),2,1
O=C(NCCO)c1c2c(nc3ccccc13)CCN(Cc1ccc(F)cc1F)C2,2,3
CCCc1cc(=O)[nH]c2nnc(SC(C)C(=O)OC)n12 (stereo not drawn),-10,-8
O=C(Nc1ccc(-c2nc3ncccc3o2)c(Cl)c1)c1ccco1,19,31
c1ccc(-n2ccc(CN3CCCC(Cn4cncn4)C3)n2)cc1 (stereo not drawn),2,0
CC1(C)C[C@@H]2C(=O)CC[C@H]3O[C@]3(C)CC[C@H]21,-9,-13
Cc1cccc(NC(=O)C(C)NC(=O)c2ccccc2)c1C (stereo not drawn),1,0
Cc1ccc(OCCC(=O)N2CCc3c(sc4[nH]c(=O)n(-c5ccccc5C(F)(F)F)c(=O)c34)C2)cc1,6,2
Oc1ccccc1-c1n[nH]c(-c2ccccn2)n1,3,2
O=C(NC1CC2CCC(C1)N2Cc1ccc2c(c1)OCO2)c1ccco1 (stereo not drawn),3,4
O=C(N1CCN2CCCC2C1)C(F)(F)C(F)(F)C(F)(F)C(F)(F)C(F)(F)C(F)(F)F (stereo not drawn),0,-2
COc1ccc(CC(=O)NCc2cccc(NC(=O)C3CCCC3)c2)cc1OC,-2,-3
c1ccc(-c2nc3c(c(N4CCCC(Cn5ccnc5)C4)n2)CCNC3)cc1 (stereo not drawn),-3,-2
COc1ccc2nc(-c3ccc(C)c(NC(=O)c4cccc(C)c4)c3)cn2n1,-7,-11
CN(C1=NS(=O)(=O)c2ccccc21)c1ccc(OC(=O)c2ccccc2Br)cc1,24,26
Nc1nnc(SCC(=O)Nc2nccs2)s1,3,8
O=C(OC1CCCC1)c1ccc(Cl)c(S(=O)(=O)N2CCCC2)c1,4,10
CCc1ccc(C(C)NC(=O)CCl)cc1 (stereo not drawn),-1,-1
Cc1cc(C)nc(N2CCN(c3ncnc4sc5c(c34)CCCC5)CC2)n1,7,5
Nc1ncnc2c1c(-c1cccc(OCc3ccccc3)c1)cn2C1CC(CN2CCCC2)C1 (stereo not drawn),-8,-13

# Screening data as filed in PubChem BioAssay.
